Assay outcomes from PubChem BioAssay.
UUG fidelity: alters start codon recognition fidelity in yeast | activity score, % at 18.7 µM | AID 602363 | 0.13% of 350,000 active | S. cerevisiae UUG-firefly luciferase reporter, luminescence/redox ratio;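 active means replicate mean at a twofold rise or more, about +100% in these data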;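 further: firefly luciferase made from a UUG start codon reports start codon fidelity; reporter light over untreated wells divided by growth signal over untreated wells; some hits fall short of that in this replicate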
MT1-MMP act inh: inhibitors of human MT1-MMP activation; P50281; 0.061% of 360,000 active; HT1080 RFP-PRO-GFP cells, GFP/RFP ratio fluorescence, overnight; percent of plate control window, DMSO zero; GFP/RFP ratio change, % at 20 µM;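 active means GFP/RFP ratio change of at least 30% with cell ATP level not reduced by more than half and red fluorescence within 50% of control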; further: strong numbers were not always called active
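Assay system: HT1080 RFP-PRO-GFP cells. Benchmarks: DMSO vehicle wells and RFP-L50D-GFP reporter cell wells. Times: overnight cell settling, then overnight compound exposure, 37 °C, 5% CO2. Compound: 20 µM single dose, 1% DMSO. Read-out basis: GFP/RFP fluorescence ratio.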
eIF4H FP inh: inhibitors of RNA binding by human eIF4H; Q15056; eIF4H fluorescence polarization binding assay; inhibition, % at 35 µM; 0.94% of 290,000 active; AID 2012;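 active means 50% or more with normal probe brightness, or confirmed in later tests; about a fifth of its hits are not listed in these tables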;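 further: calls also rest on retests at 20 µM and on dose response follow-up; 0% = protein and probe with vehicle and 100% = probe without protein; strong numbers were not always called active; many hits fall short of the cut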
Env fusion inh: inhibitors of HIV Env-mediated cell fusion | inhibition, % at 12.3 µM | HeLa-JRFL Env/CEM21 cell fusion, luciferase | 1.1% of 360,000 active | AID 651610;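 active means mean replicate inhibition score of at least 50 and every replicate individually at or above 50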;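 further: 0% = plate neutral controls and 100% = maraviroc near 300 nM; one replicate is shown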
PABP FP inh: PABP-poly(A) binding inhibition; P11940; 1% of 290,000 active; PABP-poly(A) RNA binding, fluorescence polarization; AID 2014; inhibition, % at 35 µM;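 active means 50% or more with normal probe brightness, or confirmed in later tests; about a fifth of its hits are not listed in these tables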;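 further: calls also rest on retests at 20 µM and on dose response follow-up; controls were probe without protein and protein plus probe with vehicle; some compounds called inactive have numbers as strong as hits; many hits fall short of the cut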
Target sequence (P11940 whole entry, looked up): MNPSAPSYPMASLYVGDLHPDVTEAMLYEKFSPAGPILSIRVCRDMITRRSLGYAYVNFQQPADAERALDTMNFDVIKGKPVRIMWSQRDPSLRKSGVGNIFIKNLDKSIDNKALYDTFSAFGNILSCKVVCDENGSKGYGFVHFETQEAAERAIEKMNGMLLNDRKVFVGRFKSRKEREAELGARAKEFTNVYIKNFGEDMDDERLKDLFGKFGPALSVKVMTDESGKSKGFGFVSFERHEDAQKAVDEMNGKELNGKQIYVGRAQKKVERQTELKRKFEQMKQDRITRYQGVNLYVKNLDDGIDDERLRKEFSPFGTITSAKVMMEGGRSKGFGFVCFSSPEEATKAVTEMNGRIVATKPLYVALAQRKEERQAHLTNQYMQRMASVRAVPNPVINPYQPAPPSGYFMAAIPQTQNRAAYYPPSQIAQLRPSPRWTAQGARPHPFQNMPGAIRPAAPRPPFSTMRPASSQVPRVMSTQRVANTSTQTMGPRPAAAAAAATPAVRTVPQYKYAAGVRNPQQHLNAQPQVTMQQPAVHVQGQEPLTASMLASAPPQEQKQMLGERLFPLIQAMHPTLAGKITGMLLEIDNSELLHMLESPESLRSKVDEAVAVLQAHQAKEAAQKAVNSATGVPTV
Rce1 inh: inhibitors of yeast Ras-converting enzyme. calls only. yeast membranes, quenched prenylated peptide cleavage fluorescence. Q03530. 0.27% of 290,000 active;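 active means fall in fluorescence gain of 50% or more versus controls, with final raw signal at or below 3038400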;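 further: plate controls were neutral control wells for no effect and wells lacking membranes for full effect; tested at 10 µM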
Target sequence (Q03530 whole entry, looked up): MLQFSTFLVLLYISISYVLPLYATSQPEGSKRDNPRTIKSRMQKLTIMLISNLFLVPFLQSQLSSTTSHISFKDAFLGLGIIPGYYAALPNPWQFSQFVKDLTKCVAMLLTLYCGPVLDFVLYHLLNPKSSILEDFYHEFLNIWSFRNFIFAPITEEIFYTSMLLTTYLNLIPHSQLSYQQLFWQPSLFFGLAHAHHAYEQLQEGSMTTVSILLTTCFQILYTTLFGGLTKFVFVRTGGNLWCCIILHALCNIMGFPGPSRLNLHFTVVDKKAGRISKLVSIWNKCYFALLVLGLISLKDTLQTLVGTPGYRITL
CSC inhib: cancer stem cell inhibition. cancer stem cell-like cells viability, luminescence. inhibition, % at 7.5 µM. 1.1% of 300,000 active. AID 2717;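 active means mean at 75% or more and at least half the replicates too; tested in HMLE shEcad cells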;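 further: 0% = median of negative and 100% = median of positive control wells; the first replicate is given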
eIF4H FP inh retest: also measured in eIF4H FP inh; calls as there; inhibition, %; compound at 20 µM; confirmation average;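 mean of two retest wells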
PABP FP inh retest: further read-out of PABP FP inh, marked with its call; inhibition, %; compound at 20 µM; confirmation repeats;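 mean of two retest wells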
MT1-MMP act inh RFP: second read-out of MT1-MMP act inh, no call of its own (marks repeat the call); RFP signal change, %; measured here: RFP expression control read;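 0 = vehicle wells; hits needed this value within 50% of zero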
Starred values were filed as active, the others as inactive; i = inactive; . = no result given; + = active, no number.

SMILES | UUG fidelity | MT1-MMP act inh | MT1-MMP act inh RFP | eIF4H FP inh | Env fusion inh | PABP FP inh | Rce1 inh | CSC inhib | others
O=C(N/N=C/C=C/c1ccccc1[N+](=O)[O-])c1cccs1 | 1 | 2 | 1 | -9 | -15 | 28 | i | 2
O=C(Nc1cccc(Cl)c1)Nc1nnc([C@@H]2C[C@H](O)[C@@H](CO)O2)s1 | -16 | -11 | -11 | . | 6 | . | . | .
CCN(CC)CC#CCC(O)(c1ccccc1)c1ccc(Br)cc1 (stereo unspecified) | . | -4 | -4 | 6 | -3 | 7 | i | 2
COc1ccc(/C=C(/C(=O)Nc2ccccc2C(=O)N2CCCC2)c2ccccc2)cc1 | -1 | -1 | -5 | -2 | 14 | 0 | i | 0
CCCN(CCC)CCNc1c(NC2CCN(C(=O)OCC)CC2)c(=O)c1=O | -12 | 3 | 2 | -5 | 1 | 2 | i | -3
CC[C@@H]1CCCCc2ccccc2[C@H](C(=O)C[C@H](O)CC(C)=O)OC1=O | -8 | -1 | 2 | . | 10 | . | . | .
Cc1nnsc1C(=O)NC(C)C12CC3CC(CC(C3)C1)C2 (stereo unspecified) | -13 | 4 | -2 | -2 | . | 0 | i | 6
O=C1C2C(C(=O)N1c1nccs1)C1C=CC2C12CC2 (stereo unspecified) | . | 1 | 3 | 0 | 4 | 22 | i | 1
CC1C=CCC2C(=O)N(c3ccccc3OC(=O)c3cccs3)C(=O)C12 (stereo unspecified) | . | -4 | 0 | -13 | 9 | -9 | i | 11
O=C(CN1CC[n+]2c(-c3ccccc3)csc21)c1ccc(Br)cc1 | 5 | -11 | -8 | -12 | -10 | -5 | i | -4
CN1CCN(C(=O)c2ccc3c(=O)n(-c4ccc(F)cc4)c(=S)[nH]c3c2)CC1 | -16 | -2 | -2 | 2 | 2 | 94 | i | -15 | eIF4H FP inh retest=28;PABP FP inh retest=21
N#Cc1cccc(NC(=O)CC2CCCCC2)c1 | . | 3 | 1 | 2 | . | -8 | i | -2
O=C(COc1ccc([N+](=O)[O-])cc1Cl)NCCc1ccccc1 | 7 | 3 | 4 | -8 | -11 | 8 | i | 1
CC1CCCC(NS(=O)(=O)c2cc3c(cc2Cl)NC(=O)CO3)C1C (stereo unspecified) | -2 | -2 | -2 | -5 | -9 | -2 | i | -7
Cc1cccc2cc3c(N)c(C(=O)N4CCCc5ccccc54)sc3nc12 | -14 | -133 | -9 | 3 | . | 3 | i | 85*
NS(=O)(=O)c1ccc(CCNC(=O)C(=O)c2cn(CC(=O)N3CCOCC3)c3ccccc23)cc1 | -7 | -3 | -1 | -9 | -6 | 1 | i | -7
Cc1ccc(NC(=O)CS(=O)CC(=O)N(c2ccc(C)cc2)C(C)C(=O)NC2CCCCC2)cc1 (stereo unspecified) | . | -2 | 1 | -5 | -27 | -5 | i | -19
N#CCCN(C(=O)COC(=O)CCc1nc2ccccc2c(=O)[nH]1)c1ccc(F)cc1 | -21 | 3 | 2 | . | . | . | . | -15
OCC[C@@H]1C[C@H](O)[C@@H](O)[C@@]2(OCc3ccc4ccccc4c32)O1 | -8 | 4 | 3 | . | 5 | . | . | .
CN1C(=O)CC(C(=O)O)SC1=Nc1cc(Cl)c(O)c(Cl)c1 (stereo unspecified) | -11 | 4 | 20 | 2 | -13 | 11 | i | 1
Cc1ccc(Cl)cc1N1CCN(C(=O)C2CCN(S(=O)(=O)c3cccnc3)CC2)CC1 | 0 | -4 | -14 | -9 | . | -2 | i | -6
O=C(CNC(=O)c1ccc(Br)o1)NNC(=O)c1ccccc1 | -13 | 1 | 7 | . | -10 | . | . | .
Cc1ccc([N+](=O)[O-])cc1S(=O)(=O)Nc1cccc(S(=O)(=O)NC2=NCCC2)c1 | -17 | 1 | 5 | . | 0 | . | . | -9
CC(=O)c1cccc(NC(=S)NCCc2ccc(Cl)cc2)c1 | -22 | 2 | -5 | -7 | 8 | 1 | . | -5
Cc1cc(C)[n+](C)n1CC(O)Cn1c2ccccc2c2ccccc21 (stereo unspecified) | . | 1 | 0 | 4 | -4 | -3 | i | -17
Cc1cc(C)nc(/N=C(/NC(=O)Nc2ccc(Cl)c(Cl)c2)Nc2cccc(Cl)c2)n1 | -19 | 11 | 1 | -7 | -5 | 13 | i | -3
c1ccc(-c2nc(-c3ccncc3)n[nH]2)nc1 | . | 3 | 4 | 0 | -20 | 2 | i | -3
CC(NC(=O)COC(=O)c1ccc2c(=O)n3c(nc2c1)CCCCC3)c1ccc(F)cc1 (stereo unspecified) | -22 | 1 | 0 | . | 12 | . | . | .
COc1ccc(CC(=O)NC2CCSc3ccccc32)cc1OC (stereo unspecified) | 6 | -1 | 0 | 4 | 2 | -6 | i | -9
COc1ccc(NC(=S)NC2CCCCC2)cn1 | -28 | 1 | 5 | 11 | -2 | 4 | i | -19
O=C(Nc1ccc(CN2CCS(=O)(=O)CC2)cc1)c1ccccc1 | -6 | -1 | -1 | -4 | 3 | 3 | i | -12
CCOC(=O)C1CCN(c2ncnc3c2oc2ccc(Cl)cc23)CC1 | -12 | -1 | 1 | -9 | . | 2 | . | -2
Cc1ccc(S(=O)(=O)N2CCN(C(=O)c3ccc4c(c3)OCO4)CC2)cc1 | 6 | 1 | -1 | 2 | -13 | 7 | i | .
Oc1ccc(/C(Cc2ccccn2)=N\Nc2ccccc2)c(O)c1 | . | 1 | -1 | -5 | -9 | -11 | i | 61
CCOC(=O)C1=C(CNCCc2ccc(Cl)cc2)NC(=O)NC1c1ccc2c(c1)OCO2 (stereo unspecified) | -12 | 5 | -8 | -5 | . | 1 | i | .
COC(=O)c1cc(NC(=S)N2CCN(c3ccccn3)CC2)cc(C(=O)OC)c1 | -22 | -2 | 1 | -8 | -10 | -7 | i | 7
Cc1cc(C)cc(C(O)c2ncc(-c3ccccc3Cl)[nH]2)c1 (stereo unspecified) | -10 | 5 | 0 | . | -22 | . | . | .
O=C(OCCc1cc2ccccc2c(=O)o1)c1ccc2c(c1)OCO2 | -1 | 3 | 1 | . | -46 | . | . | 3
Cc1ccc(S(=O)(=O)N2CCC(C(=O)Nc3ccc4c(c3)OCO4)CC2)cc1 | -8 | 9 | 17 | -3 | -7 | -8 | . | 31
Cn1c(COc2ccccc2)nnc1SCC(=O)Nc1nnc(C2CC2)s1 | -30 | -4 | 5 | . | -2 | . | . | .

Seven entries drawn at random from those above, as already listed:
SMILES | UUG fidelity | MT1-MMP act inh | MT1-MMP act inh RFP | eIF4H FP inh | Env fusion inh | PABP FP inh | Rce1 inh | CSC inhib | others
Cc1cc(C)cc(C(O)c2ncc(-c3ccccc3Cl)[nH]2)c1 (stereo unspecified) | -10 | 5 | 0 | . | -22 | . | . | .
c1ccc(-c2nc(-c3ccncc3)n[nH]2)nc1 | . | 3 | 4 | 0 | -20 | 2 | i | -3
Cc1cccc2cc3c(N)c(C(=O)N4CCCc5ccccc54)sc3nc12 | -14 | -133 | -9 | 3 | . | 3 | i | 85*
O=C(OCCc1cc2ccccc2c(=O)o1)c1ccc2c(c1)OCO2 | -1 | 3 | 1 | . | -46 | . | . | 3
COc1ccc(NC(=S)NC2CCCCC2)cn1 | -28 | 1 | 5 | 11 | -2 | 4 | i | -19
O=C(Nc1ccc(CN2CCS(=O)(=O)CC2)cc1)c1ccccc1 | -6 | -1 | -1 | -4 | 3 | 3 | i | -12
COC(=O)c1cc(NC(=S)N2CCN(c3ccccn3)CC2)cc(C(=O)OC)c1 | -22 | -2 | 1 | -8 | -10 | -7 | i | 7

(further entries)
SMILES | UUG fidelity | MT1-MMP act inh | MT1-MMP act inh RFP | eIF4H FP inh | Env fusion inh | PABP FP inh | Rce1 inh | CSC inhib | others
CC1(C)Cc2c(C#N)c(OCC(=O)c3ccc(Cl)cc3)nc(-c3ccco3)c2CO1 | -5 | -2 | 3 | 6 | . | 17 | i | -2
O=C(Nc1ccsc1C(=O)O)c1cccc(Oc2ccccc2)c1 | -26 | -7 | -3 | -4 | -12 | 1 | i | 45
CONC(=O)c1cc(OCC(F)(F)F)ccc1OCC(F)(F)F | -19 | 3 | 4 | -7 | 1 | -7 | i | -4
Cc1cc(C)nc(Nc2cccc3ccccc23)n1 | -7 | 3 | 5 | -4 | -23 | 7 | i | 1
CCOc1ccccc1C(=O)NC1CCNCC1 | -1 | -3 | 4 | -4 | -10 | -10 | i | -15
CCCC[C@@H]1C=C(C(=O)O)[C@H](c2ccc(C#N)cc2)N1S(=O)(=O)c1ccc(C)cc1 | -2 | 3 | 3 | . | -12 | . | . | .
O=c1ccc2ccc(OCc3nnc(-c4ccccc4Br)o3)cc2o1 | . | -1 | -1 | -6 | -16 | -2 | i | -9
Cc1ccc(S(=O)(=O)/N=C(/c2ccc(F)cc2)N(C)C)cc1 | -16 | 0 | 6 | -6 | -2 | 1 | i | -5
Cc1cc(C)n(-c2nc(-n3nc(C)cc3C)c3c4c(sc3n2)COC(C)(C)C4)n1 | . | . | . | -9 | -43 | 1 | i | -14
COc1ccccc1-n1c(SCC(=O)OC(C)C)nc2cccnc21 | -32 | 2 | 6 | 4 | 15 | -2 | i | -2
CC(C)CNC(=O)NC(=O)COC(=O)c1cccc(NS(=O)(=O)c2ccc(F)c(F)c2)c1 | -24 | 1 | 0 | 2 | 8 | 9 | i | 26
COc1ccc(CNC(=O)CN2C(=O)COc3ccc(S(=O)(=O)N4CCC(C)CC4)cc32)cc1 | -14 | -3 | -5 | . | -2 | . | i | -7
CN(C(=O)COC(=O)c1cc([N+](=O)[O-])ccc1Sc1ccccc1)C1CCS(=O)(=O)C1 (stereo unspecified) | 0 | 1 | -3 | 12 | 4 | 0 | + | -10
Cc1ccc(NC(=O)CSc2nnc(-c3ccccn3)n2N)cc1F | -18 | 0 | -3 | 9 | -5 | 15 | i | -14
CCOC(=O)c1sc(NC(=O)C(CC)Sc2nnc3c4ccccc4n(CC)c3n2)nc1C (stereo unspecified) | -14 | -5 | -1 | -7 | -23 | 10 | i | -6
CCOC(=O)NC(=O)/C(C#N)=C(/C)N(C)C | . | 0 | -1 | -7 | -8 | -11 | i | -3
Cc1cc(/C=N\NC(=O)COc2cccc3cccnc23)c(C)n1-c1ccc(Br)cc1 | . | -3 | 0 | -3 | -13 | 3 | i | 10
CCCCn1c(N)c(N(CCOC)C(=O)c2ccc(-c3ccc([N+](=O)[O-])cc3)o2)c(=O)[nH]c1=O | 12 | 4 | 5 | -3 | -2 | 18 | i | -14
COc1ccc(CNC(=O)Cn2ncn3cccc3c2=O)cc1 | . | . | . | -1 | -31 | -1 | i | .
Cc1ccc(CC2(c3ccccc3)NC(=O)NC2=O)cc1 (stereo unspecified) | -4 | 6 | -2 | . | -3 | . | . | .
Cc1c2c(nc3ccccc13)CCC(C(C)(C)C)C2 (stereo unspecified) | . | -5 | 0 | -1 | -7 | 8 | i | 8
Cn1nc(C(C)(C)C)cc1C(=O)NNC(=O)c1ccc(C(F)(F)F)cc1 | . | 3 | -9 | 5 | -15 | -1 | i | -7

3 structures out of the list, sorted by count of non-hydrogen atoms, smallest number first.
SMILES | UUG fidelity | MT1-MMP act inh | MT1-MMP act inh RFP | eIF4H FP inh | Env fusion inh | PABP FP inh | Rce1 inh | CSC inhib | others
Cc1ccc(CC2(c3ccccc3)NC(=O)NC2=O)cc1 (stereo unspecified) | -4 | 6 | -2 | . | -3 | . | . | .
Cc1ccc(NC(=O)CSc2nnc(-c3ccccn3)n2N)cc1F | -18 | 0 | -3 | 9 | -5 | 15 | i | -14
CC(C)CNC(=O)NC(=O)COC(=O)c1cccc(NS(=O)(=O)c2ccc(F)c(F)c2)c1 | -24 | 1 | 0 | 2 | 8 | 9 | i | 26
